STAT3 SMM: STAT3 binders, primary screen, biochemical, small molecule microarray, single point, set 2; His-STAT3 binding, anti-His fluorescence; calls only; 17,000 compounds, 0.2% hits;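 active = compounds whose four printed spots each show fluorescence over background unusually high for their array block, chance value under 7%; compounds were printed on slides so no solution concentration is given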;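 also: about 2 pmol printed per array spot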
mut p53 SMM: binders of human mutant p53, primary screen, biochemical, small molecule microarray, anti-GST fluorescence. mutant tumor protein p53 (GST-tagged), Homo sapiens. small molecule microarray binding. calls only. 17,000 compounds, 0.4% hits. AID 624136, 2012;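 active = compounds whose four printed spots each glow above background more than chance allows, each with a p-value under 7%; compounds were printed on slides so no solution concentration is given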;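 also: about 2 pmol printed per array spot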
ID4 binder: binders of human ID4 protein, primary screen, biochemical, small molecule microarray, single point. DNA-binding protein inhibitor ID-4 (Homo sapiens), P47928. calls only. Flag-ID4 binding, fluorescence F/B. 31,000 compounds, 1.2% hits;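 active = spot signal over background at p below 0.07 in all four prints; compounds were printed on slides so no solution concentration is given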;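 also: a binder raises fluorescence above local background on the spot; about 2 pmol printed per array spot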
Target sequence (P47928 whole entry, looked up): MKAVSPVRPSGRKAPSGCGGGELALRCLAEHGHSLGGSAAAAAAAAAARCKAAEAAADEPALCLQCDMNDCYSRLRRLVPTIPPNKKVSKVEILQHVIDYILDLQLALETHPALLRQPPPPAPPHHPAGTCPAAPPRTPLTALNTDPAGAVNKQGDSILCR
Myc binder: binders of human c-Myc, primary screen, biochemical, small molecule microarray, anti-His fluorescence. 17,000 compounds, 1.5% hits. Myc proto-oncogene protein (Homo sapiens), P01106. calls only. His-c-Myc binding. AID 624141, 2012;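 active = spot fluorescence over background with P-value below 7% in all four replicate spots, showing protein binding; compounds were printed on slides so no solution concentration is given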;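 also: score is binary with 100 for all four spots passing and 0 otherwise; about 2 pmol printed per array spot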
Target sequence (P01106 whole entry, looked up): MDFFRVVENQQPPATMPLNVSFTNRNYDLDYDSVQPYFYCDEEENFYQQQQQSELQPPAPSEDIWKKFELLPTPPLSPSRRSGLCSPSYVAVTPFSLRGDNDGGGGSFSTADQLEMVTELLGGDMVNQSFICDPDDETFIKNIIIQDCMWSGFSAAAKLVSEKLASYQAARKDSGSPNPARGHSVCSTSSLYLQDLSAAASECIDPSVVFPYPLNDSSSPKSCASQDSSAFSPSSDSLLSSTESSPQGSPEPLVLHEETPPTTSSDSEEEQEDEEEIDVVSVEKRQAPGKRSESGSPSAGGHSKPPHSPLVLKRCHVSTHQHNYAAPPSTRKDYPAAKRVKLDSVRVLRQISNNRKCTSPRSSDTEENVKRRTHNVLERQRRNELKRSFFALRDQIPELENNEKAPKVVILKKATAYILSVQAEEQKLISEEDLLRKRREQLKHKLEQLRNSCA
Calls only; i = inactive; . = not tested or not shown; + = active, no number.

SMILES	STAT3 SMM	mut p53 SMM	ID4 binder	Myc binder
CC(=O)NCCc1nc2cc([N+](=O)[O-])ccc2n1C	i	i	i	i
COc1ccc(S(=O)(=O)N(C)C[C@@H]2Oc3c(NS(=O)(=O)c4ccccc4)cccc3C(=O)N([C@@H](C)CO)C[C@@H]2C)cc1	i	i	i	i
NC(=O)[C@H]1[C@@H]2C(=O)O[C@@H](c3ccccc3)[C@@H](c3ccccc3)N2[C@@H](c2ccc(O)cc2)[C@]12C(=O)Nc1ccccc12	i	i	i	i
C[C@@H]1CCCCO[C@@H](CN(C)S(=O)(=O)c2cccs2)[C@@H](C)CN([C@@H](C)CO)C(=O)c2cc(NC(=O)c3ccncc3)ccc2O1	i	i	i	i
OC(CSc1nc(-c2ccccc2)c(-c2ccccc2)o1)CC(O)c1ccccc1 (stereo unspecified)	i	i	i	i
C[C@H]1CN([C@@H](C)CO)C(=O)c2cccc(NS(=O)(=O)c3ccc(Cl)cc3)c2O[C@H]1CN(C)CC1CC1	i	i	i	i
CC(=O)Nc1ccc(S(=O)(=O)Nc2cccc(N(C)S(C)(=O)=O)c2)cc1	i	i	i	i
C[C@@H]1CN([C@@H](C)CO)C(=O)Cc2cc(NC(=O)NC3CCCCC3)ccc2O[C@H]1CN(C)Cc1ccc(-c2ccccc2)cc1	i	i	.	i
C[C@H]1CN([C@@H](C)CO)C(=O)c2cc(NC(=O)Nc3ccc(F)cc3)ccc2O[C@H]1CN(C)C	i	i	i	i
C[C@H](CO)N1C[C@H](C)[C@@H](CN(C)CC2CC2)Oc2c(NC(=O)Nc3cccc4ccccc34)cccc2C1=O	i	i	i	i
C[C@H](CO)N1C[C@H](C)[C@@H](CN(C)Cc2ccccc2)Oc2ccc(NC(=O)CCCN(C)C)cc2CC1=O	i	i	i	i
C[C@H](CO)N1C[C@H](C)[C@H](CN(C)C(=O)Nc2cccc(Oc3ccccn3)c2)OCc2cn(nn2)CCCC1=O	i	i	i	i
CC(C)NC(=O)Nc1ccc2c(c1)C(=O)N([C@@H](C)CO)C[C@H](C)[C@H](CN(C)Cc1ccc(C(=O)O)cc1)OCCCC[C@H](C)O2	i	i	i	i
COc1ccc(S(=O)(=O)N(C)C[C@@H]2Oc3ccc(NC(=O)C4CC4)cc3C(=O)N([C@H](C)CO)C[C@@H]2C)cc1	i	i	i	i
CCOc1ccc(NC(=O)C(C)O)c([N+](=O)[O-])c1 (stereo unspecified)	i	i	i	i
O=C(NCc1ccccc1)C1=C[C@@H](C2CCCCC2)C[C@@H](OCc2ccc(CO)cc2)O1	+	i	.	i
CNC[C@@H]1Oc2ccc(NC(=O)Nc3ccc(F)cc3)cc2C(=O)N([C@@H](C)CO)C[C@@H]1C	i	i	i	i
COC(=O)c1ccc(NC(=O)CN(c2ccc(C)cc2C)S(C)(=O)=O)cc1	i	i	i	i
COc1cc(C2NC(=O)NC(c3ccccc3)=C2C(C)=O)ccc1OCC(=O)O (stereo unspecified)	i	i	i	i
CNC[C@@H]1Oc2ccc(NC(=O)Nc3cccc4ccccc34)cc2CC(=O)N([C@@H](C)CO)C[C@H]1C	i	i	+	i
C[C@H](CO)N1C[C@H](C)[C@H](CN(C)CC2CC2)Oc2ccc(NS(=O)(=O)c3ccc(F)cc3)cc2C1=O	i	i	.	i
C[C@@H]1CCCCO[C@H](CN(C)Cc2ccccc2)[C@H](C)CN([C@H](C)CO)C(=O)c2cc(N(C)C)ccc2O1	i	i	i	i
C[C@@H]1CN([C@@H](C)CO)C(=O)c2cc(NC(=O)C3CC3)ccc2O[C@H]1CN(C)S(=O)(=O)c1cccs1	i	i	i	i
COc1cccc(NC(=O)CNS(=O)(=O)c2cc(Cl)ccc2Cl)c1	i	i	i	i
CCCN1C(=O)C(NS(=O)(=O)c2ccc(N)cc2)(C(F)(F)F)C(C(=O)OC)=C1C (stereo unspecified)	i	i	i	i

4 records picked at random from the list so far:
SMILES	STAT3 SMM	mut p53 SMM	ID4 binder	Myc binder
CCCN1C(=O)C(NS(=O)(=O)c2ccc(N)cc2)(C(F)(F)F)C(C(=O)OC)=C1C (stereo unspecified)	i	i	i	i
C[C@H]1CN([C@@H](C)CO)C(=O)c2cc(NC(=O)Nc3ccc(F)cc3)ccc2O[C@H]1CN(C)C	i	i	i	i
C[C@H](CO)N1C[C@H](C)[C@@H](CN(C)Cc2ccccc2)Oc2ccc(NC(=O)CCCN(C)C)cc2CC1=O	i	i	i	i
C[C@@H]1CCCCO[C@H](CN(C)Cc2ccccc2)[C@H](C)CN([C@H](C)CO)C(=O)c2cc(N(C)C)ccc2O1	i	i	i	i

Additional results follow:
SMILES	STAT3 SMM	mut p53 SMM	ID4 binder	Myc binder
CC(C)NC(=O)Nc1ccc2c(c1)C(=O)N([C@@H](C)CO)C[C@@H](C)[C@H](CN(C)S(=O)(=O)c1ccccc1)OCCCC[C@H](C)O2	i	i	i	i
Cn1c(Cc2cccs2)nnc1SCC(=O)N1CCc2ccccc21	i	i	i	i
C[C@@H]1CN([C@@H](C)CO)C(=O)c2cc(NC(=O)NC3CCCCC3)ccc2O[C@H]1CN(C)C(=O)Nc1ccc(C(F)(F)F)cc1	i	i	i	i
C[C@@H]1CN([C@H](C)CO)C(=O)c2cc(NC(=O)Nc3cccc4ccccc34)ccc2O[C@@H](C)CCCCO[C@H]1CN(C)Cc1ccc(Cl)c(Cl)c1	i	i	.	i
C[C@@H]1CN([C@@H](C)CO)C(=O)c2cc(NS(=O)(=O)c3cccs3)ccc2O[C@@H](C)CCCCO[C@H]1CN(C)C(=O)CCC(F)(F)F	i	i	i	i
C[C@@H]1CN([C@H](C)CO)C(=O)c2cc(NS(=O)(=O)c3ccccc3)ccc2O[C@H]1CN(C)C(=O)Nc1cccc2ccccc12	i	i	i	i
CNC[C@@H]1Oc2c(NS(=O)(=O)c3ccc(Cl)cc3)cccc2C(=O)N([C@H](C)CO)C[C@@H]1C	i	i	i	i
CC(C)C[C@@H](/C=C/S(C)(=O)=O)NC(=O)[C@H](CC(C)C)NC(=O)[C@H](CC(C)C)NC(=O)OCc1ccccc1	i	i	i	i
C[C@@H]1CN([C@H](C)CO)C(=O)CCCn2cc(nn2)CO[C@@H]1CN(C)C(=O)C1CC1	i	i	i	i
O=C(OCc1ccccc1[N+](=O)[O-])c1cccc(-c2nnc(-c3ccccc3)o2)c1	i	i	i	i
Cc1ccc(-c2csc(Cc3nc(-c4cc5ccccc5oc4=O)cs3)n2)cc1	i	i	i	i
COc1ccc(NC(=O)N(C)C[C@H]2Oc3c(cccc3N(C)C)C(=O)N([C@@H](C)CO)C[C@H]2C)cc1	i	i	i	i
Cc1noc(C)c1NC(=O)N(C)C[C@@H]1Oc2ccc(NC(=O)Cn3cnnn3)cc2C(=O)N([C@@H](C)CO)C[C@H]1C	i	i	i	i
Cc1noc(C)c1NC(=O)N(C)C[C@H]1Oc2ccc(NS(=O)(=O)c3cn(C)cn3)cc2CC(=O)N([C@@H](C)CO)C[C@@H]1C	i	i	i	i
C[C@@H]1CN([C@H](C)CO)C(=O)Cc2cc(NC(=O)Cn3cnnn3)ccc2O[C@@H]1CN(C)C(=O)Nc1cccc2ccccc12	i	i	i	i
C=CCNC(=O)[C@H]1[C@@H]2C(=O)O[C@@H](c3ccccc3)[C@@H](c3ccccc3)N2[C@@H](c2ccccc2OCCO)[C@]12C(=O)Nc1ccc(C#CC3=CCCCC3)cc12	i	i	i	i
CNC[C@@H]1OCCCC[C@H](C)Oc2ccc(NS(=O)(=O)c3ccc(C)cc3)cc2C(=O)N([C@@H](C)CO)C[C@@H]1C	i	i	.	i
O=C1c2ccccc2C(=O)N1CCCn1c2ccccc2c2nc3ccc([N+](=O)[O-])cc3cc21	i	i	i	i
Cc1ccc(C)c(-n2nnnc2SCC(=O)Nc2ccc(F)cc2)c1	i	i	i	i
C[C@H](CO)N1C[C@H](C)[C@H](CN(C)C(=O)Nc2ccccc2)Oc2ncc(Br)cc2C1=O	i	i	i	i
C[C@@H]1CN([C@H](C)CO)C(=O)c2cc(NC(=O)c3ccncc3)ccc2O[C@H]1CN(C)C(=O)Nc1ccc(F)cc1	i	i	i	i
C[C@@H]1CN([C@H](C)CO)C(=O)c2cc(NC(=O)Nc3ccc4c(c3)OCO4)ccc2O[C@@H]1CN(C)CC1CCCCC1	i	+	i	i
O=C(COc1ccc([N+](=O)[O-])cc1)Nc1ccncc1	i	i	i	i
C[C@H]1CN([C@@H](C)CO)C(=O)c2cc(NS(=O)(=O)c3ccccc3)ccc2O[C@@H]1CN(C)C(=O)Nc1ccc(C(F)(F)F)cc1	i	i	.	i
CN1CCCN(C(c2ccccc2)c2ccc(Cl)cc2)CC1 (stereo unspecified)	i	i	i	i

Record cards, as listed above. Order of screens: STAT3 SMM, mut p53 SMM, ID4 binder, Myc binder
O=C1c2ccccc2C(=O)N1CCCn1c2ccccc2c2nc3ccc([N+](=O)[O-])cc3cc21 is listed with i, i, i, i
CCOc1ccc(NC(=O)C(C)O)c([N+](=O)[O-])c1 (stereo unspecified) is listed with i, i, i, i
O=C(OCc1ccccc1[N+](=O)[O-])c1cccc(-c2nnc(-c3ccccc3)o2)c1 is listed with i, i, i, i

(list continues)
SMILES	STAT3 SMM	mut p53 SMM	ID4 binder	Myc binder
C[C@@H]1CN([C@@H](C)CO)C(=O)c2cccc(NS(C)(=O)=O)c2O[C@@H]1CN(C)Cc1ccc2c(c1)OCO2	i	i	i	i
Cc1ccc(N(C(C)C(=O)Nc2c(C)cccc2C)S(C)(=O)=O)cc1 (stereo unspecified)	i	i	i	i
Cc1ccc(S(=O)(=O)Nc2ccc3c(c2)C(=O)N([C@H](C)CO)C[C@@H](C)[C@H](CN(C)C(=O)NC2CCCCC2)OCCCC[C@H](C)O3)cc1	i	i	.	i
CC1(C)Cc2ccccc2-c2nc(NCCCO)n(-c3ccccc3)c(=O)c21	i	i	i	i
O=C1C(=O)C(C2CCC(c3ccc(Cl)cc3)CC2)C(=O)c2ccccc21 (stereo unspecified)	i	i	.	i
C[C@@H]1CN([C@H](C)CO)C(=O)c2cc(NS(=O)(=O)c3cccs3)ccc2O[C@@H](C)CCCCO[C@H]1CN(C)Cc1ccccc1	i	i	i	i
COC(=O)c1c(NC(=O)CC2Sc3ccccc3NC2=O)sc(C)c1C (stereo unspecified)	i	i	i	i
C[C@H]1CN([C@@H](C)CO)C(=O)c2cc(N(C)C)ccc2O[C@H]1CN(C)S(=O)(=O)c1ccccc1	i	i	i	i
C[C@H](CO)N1C[C@H](C)[C@H](CN(C)C)OCCCC[C@H](C)Oc2ccc(NS(=O)(=O)c3cn(C)cn3)cc2C1=O	i	i	i	i
COc1ccccc1-c1cc(C(F)(F)F)nc(S(=O)(=O)CCCC(=O)N2CCOCC2)n1	i	i	i	i
COc1ccc(C(=O)CSc2nc(C)cc(=O)[nH]2)cc1C	i	i	i	i
C[C@H]1CN([C@@H](C)CO)C(=O)CCCn2cc(nn2)CO[C@@H]1CN(C)C(=O)Nc1ccc2c(c1)OCO2	i	i	i	i
CN1C(=O)N[C@@H]2c3ccccc3O[C@@]1(C)[C@@H]2COC(=O)c1ccccc1	i	i	.	i
CCOC(=O)c1c(NC(=O)C2C3C=CC(C3)C2(C)C(=O)O)sc2c1CCCC2 (stereo unspecified)	i	i	i	i
CNC[C@H]1Oc2ccc(NC(=O)Nc3ccc(F)cc3)cc2C(=O)N([C@H](C)CO)C[C@@H]1C	i	i	i	i
C[C@@H]1CN([C@H](C)CO)C(=O)c2cccc(NC(=O)c3ccncc3)c2O[C@@H]1CN(C)S(=O)(=O)c1cn(C)cn1	i	i	i	i
C[C@@H]1CN([C@H](C)CO)C(=O)Cc2cc(NC(=O)CCN3CCOCC3)ccc2O[C@H]1CN(C)C(=O)Nc1ccccc1	i	i	i	i
Cc1ccnc(NS(=O)(=O)c2cc([N+](=O)[O-])ccc2C)c1	i	i	i	i
CC(C)NC(=O)Nc1ccc2c(c1)C(=O)N([C@@H](C)CO)C[C@H](C)[C@@H](CN(C)Cc1ccccc1)OCCCC[C@H](C)O2	i	i	i	+
CC(C)C(NCCC(O)c1ccc(Br)cc1)C(=O)O (stereo unspecified)	i	i	i	i
CN(CC(=O)Nc1cc(Cl)ccc1O)S(=O)(=O)c1ccc(Cl)cc1	i	i	i	i
C[C@H]1CN([C@@H](C)CO)C(=O)Cc2cc(NS(C)(=O)=O)ccc2O[C@@H]1CN(C)C(=O)Nc1ccccc1	i	i	i	i
CC(=O)n1cc([C@H]2C=C(C(=O)N3CCN(Cc4ccc5c(c4)OCO5)CC3)O[C@@H](OCc3ccc(CO)cc3)C2)c2ccccc21	i	i	i	i
COc1ccc(CNc2nc(SC)n[nH]2)cc1OC	i	i	i	i
C[C@@H]1CN([C@@H](C)CO)C(=O)Cc2cc(N(C)C)ccc2O[C@@H]1CN(C)C(=O)Nc1ccccc1	i	i	i	i
COc1ccc(CN(C)C[C@@H]2Oc3ccc(NC(=O)Cc4cn(C)c5ccccc45)cc3CC(=O)N([C@H](C)CO)C[C@@H]2C)cc1	i	i	i	i
C[C@H](CO)N1C[C@H](C)[C@@H](CN(C)C(=O)Nc2cccc3ccccc23)Oc2c(NS(=O)(=O)c3cccs3)cccc2C1=O	i	i	i	i
CC(OC1OC(CO)C(O)C(O)C1O)C1C(O)CC2C3CCC4=CC(=O)CCC4(C)C3CCC21C (stereo unspecified)	i	i	i	i

An excerpt; rates above refer to the full screens.
